RGS16-Gao: regulators of human RGS16-Galphao interaction | O15492+P09471 | bead-based flow cytometry RGS16-Galphao binding, fluorescence; actives lie on both sides | binding response (% of control), % at 10 µM | 0.38% of 220,000 active | AID 1441;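 active means below 25% or above 175%, edge rows of some plates excepted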;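 further: Galphao activated by GDP with aluminum fluoride before binding; 100% = wells without compound and 0% = beads without RGS; some results beyond the cut were filed as inactive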
HSV augment: HSV replication enhancement; HSV replication augmentation in cells, fold increase; maximum fold increase; 0.005% of 220,000 active;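 active means peak rise of 1.5-fold or more in the series; tested in PC3 cells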;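 further: first round at 10 µM; read as green reporter fluorescence; hits show the peak of a series up to 25 µM; 1 = signal of infected wells without compound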
PKD1 inh: inhibitors of human PKD1 kinase; PKD1 kinase fluorescence polarization assay; 0.056% of 200,000 active; Q15139; AID 797; inhibition, %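 (about 10 µM by stock and volumes)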;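 active means inhibition of 50% or more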;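 further: controls were vehicle for no effect and a reference inhibitor for full effect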
Insulin prom inh: TRM-6 insulin promoter activity inhibition; 0.9% of 130,000 active; inhibition, % at 2 µM; TRM-6 cells (human fetal islet line), insulin promoter-eGFP reporter, imaging; reporter expression induced with tamoxifen;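 active means inhibition above the mean plus 3 SD, with well images judged a real hit on visual review, cut at about 60% in these data, passing the limit was not always enough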
GALR2 ag: activates the human galanin receptor 2. GALR2-expressing cells, agonist activation read-out. activation, %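 (tested at 5 µM)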. 0.48% of 140,000 active. AID 803;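 active means above mean plus 3 SD of all compounds, about 5% in these data, not always enough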;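 further: 0% = vehicle buffer wells and 100% = reference agonist at full effect; tested in CHO reporter cells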
Target sequence (O43603 whole entry, looked up): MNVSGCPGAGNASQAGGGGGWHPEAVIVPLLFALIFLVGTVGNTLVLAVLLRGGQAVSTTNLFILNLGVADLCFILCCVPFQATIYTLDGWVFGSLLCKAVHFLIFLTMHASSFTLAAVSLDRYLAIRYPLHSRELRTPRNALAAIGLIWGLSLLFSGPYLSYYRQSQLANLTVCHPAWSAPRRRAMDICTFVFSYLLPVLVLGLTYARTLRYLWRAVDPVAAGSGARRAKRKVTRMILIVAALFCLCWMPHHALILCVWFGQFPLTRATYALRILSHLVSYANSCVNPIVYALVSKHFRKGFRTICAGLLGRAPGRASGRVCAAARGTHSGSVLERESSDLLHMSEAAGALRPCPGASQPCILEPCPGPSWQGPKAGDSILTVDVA
Insulin prom inh cell count: recorded beside Insulin prom inh, whose call it bears; normalized cell count, %; measured here: cell count, toxicity; reference of the scale not given here;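 cells exposed to compound for 48 h; stained nuclei by imaging scaled within each plate; lower means fewer cells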
HSV augment primary fold: recorded beside HSV augment, whose call it bears; fold increase; compound at 10 µM; measured here: primary screen fold increase 10 uM; tested in PC3 cells;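 GFP signal in the first replicate; 1 = infected wells without compound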
* hit, by the source's call; i = inactive; . = not tested or not shown. Compounds were not picked by outcome; about 1.3% have a hit in one of these screens.

item	canonical_smiles	HSV augment primary fold	Insulin prom inh	PKD1 inh	RGS16-Gao
1	Cc1ccc(S(=O)(=O)N(C)CC(=O)N/N=C/c2ccc(C)o2)cc1	1.1	.	.	99
2	Cc1ccc(NS(=O)(=O)c2ccc3c(c2)C(=O)c2ccccc2C3=O)c(C)c1	0.84	-42	7	97
3	CCNC(=O)NC(=O)CSc1ccccc1F	1.1	-29	6	131
4	CCOc1ccc(NC(=O)NCCCn2c(C)nc3cc(C)c(C)cc32)cc1	0.77	-1	1	98
5	CCOc1ccc2[nH]c(=O)c(CN(CCO)Cc3nnnn3CCc3ccccc3)cc2c1	1.1	-35	-9	104
6	Cc1nn(-c2ccccc2C(F)(F)F)c(=O)c2noc(C)c12	1.3	.	.	120
7	Cc1ccc(N2CC(C(N)=O)CC2=O)cc1C (stereo not given)	0.82	-319	15	105
8	O=C(NCCCn1ccnc1)NC(C(F)(F)F)C(F)(F)F	0.74	28	-9	99

item	Insulin prom inh cell count	HSV augment	GALR2 ag
1	.	i	.
2	104	i	-2.2
3	107	i	0.0
4	160	i	-2.5
5	104	i	0.9
6	.	i	.
7	21	i	-1.4
8	132	i	-1.5

(more compounds)
item	canonical_smiles	HSV augment primary fold	Insulin prom inh	PKD1 inh	RGS16-Gao
9	O=C1CC(=O)c2c1cccc2[N+](=O)[O-]	0.91	.	.	98
10	CC(C)[N+](C)(C)CC#CC(O)(c1ccccc1)c1ccccc1	0.99	.	.	100
11	N#C/C(=C\c1ccc(-c2cccc([N+](=O)[O-])c2)o1)C(=O)NCCN1CCOCC1	0.8	.	-3	99
12	CC(C)(C)c1ccc(S(=O)(=O)NCCc2ccncc2)cc1	0.98	-43	3	110
13	O=S(=O)(c1cnc(Cl)c(Br)c1)N1CCc2ccccc21	0.66	.	.	107
14	Cc1ccc(NC(=O)CN2C(=O)N/C(=C/c3ccc(N4CCOCC4)cc3)C2=O)cc1	1.1	-62	-2	101
15	COC(=O)COc1ccc(S(=O)(=O)Nc2ccc(C(N)=O)cc2)cc1C	0.94	-3	1	101
16	Cc1ccccc1Cn1nc(C)c(NC(=O)c2cc(-c3ccco3)on2)c1C	1.1	0	3	93

item	Insulin prom inh cell count	HSV augment	GALR2 ag
9	.	i	.
10	.	i	.
11	.	i	.
12	134	i	-1.6
13	.	i	.
14	93	i	1.6
15	86	i	0.4
16	136	i	.

(continued)
item	canonical_smiles	HSV augment primary fold	Insulin prom inh	PKD1 inh	RGS16-Gao
17	Fc1ccc(N2CCN(C(=S)NCc3ccco3)CC2)cc1	0.92	.	0	103
18	c1ccc(CN2CCC(=NNc3nc4ccccc4[nH]3)CC2)cc1	0.94	0	-4	105
19	CCOC(=O)c1c(C)[nH]c(C(=O)Cn2nnc(-c3ccc(Cl)cc3)n2)c1C	0.92	.	-5	32
20	CCn1c(=S)sc2c(=O)n(-c3ccccc3)c(SC)nc21	0.98	43	-9	101
21	COc1ccc(CNC(=O)c2cccc(N3CCCC3=O)c2)cc1	1	19	1	91
22	CCc1nnc(N2C(=O)c3ccc(Oc4ccc([N+](=O)[O-])cc4)cc3C2=O)s1	0.99	.	-6	102
23	COc1cccc(C(=O)N2CCCC(c3nc(-c4cccs4)no3)C2)c1 (stereo not given)	0.89	31	-1	98
24	Clc1ccc(-n2ncc3c(N4CCCCCC4)ncnc32)cc1	0.95	.	-8	84

item	Insulin prom inh cell count	HSV augment	GALR2 ag
17	.	i	.
18	167	i	.
19	.	i	-1.0
20	110	i	1.2
21	110	i	-1.8
22	.	i	0.5
23	79	i	-1.6
24	.	i	-0.8

Next part.
item	canonical_smiles	HSV augment primary fold	Insulin prom inh	PKD1 inh	RGS16-Gao
25	COc1ccc(C(=O)CSc2nnc(Cn3cnc4ccccc43)o2)cc1	1.1	.	-6	99
26	O=C(NCCN1CCOCC1)C(=O)NCc1ccco1	1	10	6	105
27	S=c1[nH]c2ccc(Cl)cc2[nH]1	0.95	38	-2	95
28	CCC(C)NC(=O)c1c(F)c(F)c(F)c(F)c1F (stereo not given)	0.98	63	-8	91
29	O=C(NCc1ccccc1C(F)(F)F)C12CN(Cc3ccccc3)CC1C(c1ccc([N+](=O)[O-])cc1)=NO2 (stereo not given)	0.93	5	5	91
30	NC(=O)NC(Cc1ccccc1)C(=O)NCC1(N2CCCCC2)CCCCC1 (stereo not given)	0.91	.	-11	148
31	Cc1c(NC(=O)COC(=O)C2(c3ccccc3F)CCCC2)c(=O)n(-c2ccccc2)n1C	1.1	36	3	108
32	O=C(Nc1ccc2c(c1)OCO2)C1CCN(S(=O)(=O)c2cccc3cccnc23)CC1	0.84	.	5	81

item	Insulin prom inh cell count	HSV augment	GALR2 ag
25	.	i	-0.3
26	110	i	.
27	83	i	-1.2
28	138	i	-2.1
29	106	i	-0.9
30	.	i	-0.7
31	69	i	.
32	.	i	-1.3

Down the list, as entered above.
GALR2 ag for entries 20 to 27 → 1.2, -1.8, 0.5, -1.6, -0.8, -0.3, ., -1.2
Insulin prom inh for entries 20 to 27 → 43, 19, ., 31, ., ., 10, 38
HSV augment for entries 20 to 27 → i, i, i, i, i, i, i, i

In a second layout: 14 of the compounds above
No.	Molecule	HSV augment primary fold	Insulin prom inh	PKD1 inh	RGS16-Gao	Insulin prom inh cell count	HSV augment	GALR2 ag
19	CCOC(=O)c1c(C)[nH]c(C(=O)Cn2nnc(-c3ccc(Cl)cc3)n2)c1C	0.92	.	-5	32	.	i	-1.0
20	CCn1c(=S)sc2c(=O)n(-c3ccccc3)c(SC)nc21	0.98	43	-9	101	110	i	1.2
21	COc1ccc(CNC(=O)c2cccc(N3CCCC3=O)c2)cc1	1	19	1	91	110	i	-1.8
22	CCc1nnc(N2C(=O)c3ccc(Oc4ccc([N+](=O)[O-])cc4)cc3C2=O)s1	0.99	.	-6	102	.	i	0.5
23	COc1cccc(C(=O)N2CCCC(c3nc(-c4cccs4)no3)C2)c1 (stereo not given)	0.89	31	-1	98	79	i	-1.6
24	Clc1ccc(-n2ncc3c(N4CCCCCC4)ncnc32)cc1	0.95	.	-8	84	.	i	-0.8
25	COc1ccc(C(=O)CSc2nnc(Cn3cnc4ccccc43)o2)cc1	1.1	.	-6	99	.	i	-0.3
26	O=C(NCCN1CCOCC1)C(=O)NCc1ccco1	1	10	6	105	110	i	.
27	S=c1[nH]c2ccc(Cl)cc2[nH]1	0.95	38	-2	95	83	i	-1.2
28	CCC(C)NC(=O)c1c(F)c(F)c(F)c(F)c1F (stereo not given)	0.98	63	-8	91	138	i	-2.1
29	O=C(NCc1ccccc1C(F)(F)F)C12CN(Cc3ccccc3)CC1C(c1ccc([N+](=O)[O-])cc1)=NO2 (stereo not given)	0.93	5	5	91	106	i	-0.9
30	NC(=O)NC(Cc1ccccc1)C(=O)NCC1(N2CCCCC2)CCCCC1 (stereo not given)	0.91	.	-11	148	.	i	-0.7
31	Cc1c(NC(=O)COC(=O)C2(c3ccccc3F)CCCC2)c(=O)n(-c2ccccc2)n1C	1.1	36	3	108	69	i	.
32	O=C(Nc1ccc2c(c1)OCO2)C1CCN(S(=O)(=O)c2cccc3cccnc23)CC1	0.84	.	5	81	.	i	-1.3

Next part:
item	canonical_smiles	HSV augment primary fold	Insulin prom inh	PKD1 inh	RGS16-Gao
33	CC1(C)OC2OC(COC(=O)c3ccccc3)C3OC(C)(C)OC3C2O1 (stereo not given)	1	31	-9	107
34	CCSc1nc2c(c(=O)n1CC)SC(C)C2 (stereo not given)	0.93	.	-12	107
35	CC(=O)Nc1cccc(/C(C)=N/NC(=O)c2ccc(NS(=O)(=O)c3cccs3)cc2)c1	1.1	.	.	106
36	Cc1ccc(C)c(OCc2nnc(SCC(=O)NCc3ccc4c(c3)OCO4)o2)c1	1.4	.	-2	99
37	CCc1cc(C(=O)N2CCCC(CCC(=O)NCc3cccc(OC)c3)C2)no1 (stereo not given)	1.1	.	1	101
38	CCCCN1CC(O)=C(c2nc(-c3ccc(Br)cc3)cs2)C1=N	1	.	.	99
39	O=C(Cc1csc(Nc2nc(=S)[nH]c3ccccc23)n1)N1CCN(c2cccc(Cl)c2)CC1	1	0	-1	107
40	O=C(CS(=O)CC(=O)N(CC(=O)NC1CCCC1)C1CCCC1)Nc1ccc(F)cc1 (stereo not given)	1.1	14	-11	102

item	Insulin prom inh cell count	HSV augment	GALR2 ag
33	134	i	0.3
34	.	i	-0.7
35	.	i	.
36	.	i	.
37	.	i	.
38	.	i	.
39	37	i	.
40	128	i	-1.3

Source: PubChem (several laboratories)
